High-throughput results as filed in PubChem.
TRPML1 blocker – inhibitors of human TRPML1 channel; Q9GZU1; TRPML1-inducible cells, Ca2+ dye fluorescence, FDSS; active compounds read low; inhibition of EC80 agonist-evoked calcium signal; activity change, negative = inhibition, % (concentration not given with the values); hit rate 0.02% among 390,000; AID 624415; in the data active means activity change below about -50%; inconclusive means about -30% to -50%; inactive means above about -30%;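 also: stimulus is agonist 54-4 at its EC80 concentration; % is scaled to controls: 0 for no effect and ±100 for the full control effect; the text of the record puts the active cut at -80%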
Target sequence (Q9GZU1 whole entry, looked up): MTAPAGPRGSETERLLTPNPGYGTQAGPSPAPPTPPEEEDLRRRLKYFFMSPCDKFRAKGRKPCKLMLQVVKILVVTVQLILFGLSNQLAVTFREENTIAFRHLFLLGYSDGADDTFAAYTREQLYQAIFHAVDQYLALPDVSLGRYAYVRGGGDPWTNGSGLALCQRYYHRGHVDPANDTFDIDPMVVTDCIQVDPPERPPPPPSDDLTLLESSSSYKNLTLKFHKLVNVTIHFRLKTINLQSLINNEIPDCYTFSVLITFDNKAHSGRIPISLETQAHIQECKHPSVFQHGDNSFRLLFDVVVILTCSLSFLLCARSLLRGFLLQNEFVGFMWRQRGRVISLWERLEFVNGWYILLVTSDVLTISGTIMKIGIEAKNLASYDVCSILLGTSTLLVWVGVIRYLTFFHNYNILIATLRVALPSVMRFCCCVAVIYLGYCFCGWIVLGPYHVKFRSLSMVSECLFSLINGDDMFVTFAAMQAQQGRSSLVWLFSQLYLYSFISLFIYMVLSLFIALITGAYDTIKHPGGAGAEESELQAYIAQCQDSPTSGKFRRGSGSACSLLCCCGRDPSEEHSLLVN
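Calcium fluorescence in TRPML1-DL cells induced overnight with Tet: a 110 s read after compound pin addition, then a 110 s antagonist read after challenge with 54-4 at 4 uM final (EC80).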
gsp agonist – activates gsp, the McCune-Albright syndrome mutation. hit rate 0.13% among 340,000. Potency, µM (titrated, usually from 76.9 µM), for the others: at the top dose activation (cAMP increase), usual class: activators. gsp mutant cells, cAMP HTRF, 30 min; control for the full effect not named in the record. AID 624287; active = well fitted activation curve with a large enough effect; inconclusive = small, poorly fitted or top-dose-only effect, or another doubt; inactive = no such curve, though single readings can be large or run the other way; cell line not stated here;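 also: phosphodiesterase inhibitor Ro 20-1724 added with compounds to block cAMP breakdown; potency is read from the fitted curve at half-maximal effect; nearly all actives have a fitted effect of over 60% in size; about a fifth of the inactives were tested at one dose only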
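Cells stably selected in G418 were plated at 2000/well, grown 16-24 hr, then given compounds in DMSO with the PDE inhibitor […] (300 uM solution added) for 30 min at 37C; cAMP was read by HTRF.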
Sfp inh – inhibitors of Bacillus subtilis Sfp phosphopantetheinyl transferase | Biochemical Sfp PPTase activity, qHTS | Q9F4F7 | Potency, µM, inactives show max response, negative = inhibition, hits mostly inhibitors | hit rate 3.5% among 310,000 | AID 1490; active = well fitted inhibition curve with a large enough effect; inconclusive = small, poorly fitted or top-dose-only effect, or another doubt; inactive = no such curve, though single readings can be large or run the other way;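 also: the enzyme is Sfp with the accession as filed and its product quenches rhodamine fluorescence; potency is read from the fitted curve at half-maximal effect; 0% = enzyme reaction without inhibitor and -100% = no enzyme wells; top concentration of the series not given in the record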
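Fluorescence-quenching assay with 15 nM Sfp, 5 uM rhodamine-CoA and 12.5 uM BHQ-2-labelled ybbR peptide in pH 7.6 Hepes/MgCl2 buffer. Enzyme was pre-incubated with compound for 15 min at room temperature. Rate was taken from the 30-min fluorescence change (525/598 nm).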
ClpP mod – qHTS Assay for Activators of ClpP | ATP-dependent Clp protease proteolytic subunit (Bacillus subtilis (strain 168)), P80244 | purified B. subtilis ClpP, FRET peptide cleavage, 20 min | Potency, µM (highest dose often 57.5 µM), inactives show at the top dose activity change, negative = active | hit rate 1.9% among 340,000; active = well fitted falling curve with a large enough effect; inconclusive = small, poorly fitted or top-dose-only effect; inactive = no such curve, though single readings can be large or run the other way; also: potency is read from the fitted curve at half-maximal effect; the source files actives as falling curves though it sought activators and does not explain the sign; nearly all actives have a fitted effect of over 65% in size; many hits overshoot -100%
Target sequence (P80244 whole entry, looked up): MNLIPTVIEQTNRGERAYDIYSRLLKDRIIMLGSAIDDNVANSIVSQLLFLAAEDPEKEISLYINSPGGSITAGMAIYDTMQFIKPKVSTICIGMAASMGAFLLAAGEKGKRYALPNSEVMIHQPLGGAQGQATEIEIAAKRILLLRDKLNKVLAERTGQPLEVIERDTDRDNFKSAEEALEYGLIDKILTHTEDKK
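Purified B. subtilis ClpP, 10 microg/mL final in Tris/HCl pH8 with KCl, BSA, glycerol and Tween-20, cleaved an Abz/nitrotyrosine-quenched decapeptide. Fluorescence (ex 320, em 430) was read at 0 and 20 min at room temperature. Delta was normalized to 5.8 microM ADEP and DMSO/no-enzyme controls.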
Menin-MLL FL inh – displaces fluorescein MLL peptide from human menin; FP activity change, % at 61.4 µM; Fluorescence polarization, fluorescein-MLL peptide displacement from menin; 290,000 tested, under 10 active; inconclusive = falling polarisation curve, or a change in total fluorescence; inactive = total fluorescence flat and polarisation flat or rising; no compound was filed as active; the % refers to the polarisation; negative = inhibition;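 also: % of control where 0% means no effect; inhibitors lower the polarisation; unlabelled MLL peptide was the positive control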
gsp antag – gsp mutant antagonism | gsp-mutant cells, cAMP HTRF, 30 min; control for the full effect not named in the record | Potency, µM (top dose mostly 76.9 µM), without a hit: top-dose activity change, negative = inhibition, actives largely listed as inhibitors | hit rate 0.4% among 340,000 | AID 624288; active = falling curve of any shape with a large fitted effect; inconclusive = falling curve, mostly with a smaller effect; inactive = flat or rising curve; cell line not stated here;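 also: intracellular cAMP measured with PDE inhibitor Ro 20-1724 present during compound exposure; potency is read from the fitted curve at half-maximal effect; % is scaled to controls: 0 for no effect and ±100 for the full control effect; nearly all actives have a fitted effect of over 65% in size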
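Measurement of cellular cAMP by homogeneous time-resolved fluorescence following a 30 min compound exposure at 37C. The PDE inhibitor […] was present throughout; the assay buffer was DPBS with 0.05% BSA and 0.005% Tween 20.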
TRPV1 potentiator – human TRPV1 potentiation | hit rate 0.02% among 320,000 | Q8NER1 | TRPV1-expressing cells, Fluo-8 calcium influx, capsaicin EC20 potentiation; host cell line not named in the record; control for the full effect not named in the record | potentiation, % at 8.33 µM; active means potentiation above 80%; inconclusive means 30% to 80%; inactive means below 30%; also: 0% is about no effect
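Fluo-8 calcium influx in TRPV1-expressing cells, kinetic read (ex 480/em 520 nm). Compound added and read 3 min for agonist activity, followed by capsaicin at EC20 final and 2 min further read for enhancement.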
Starred values were filed as active, the others as inactive; ? = inconclusive; · = not tested or not shown; & = joins results of further samples; [ ] = another dose, or the depositor's remark.

Values run as follows: TRPV1 potentiator	TRPML1 blocker	ClpP mod	gsp agonist	gsp antag	Menin-MLL FL inh	Sfp inh
CCOC(=O)c1nc(S(C)(=O)=O)ncc1Cl
    6	27	2.5%	-18%	15%	3.9	-13%
O=C(NCCCN1CCC(Cc2ccccc2)CC1)C1CCN(S(=O)(=O)N2CCC3(CC2)OCCO3)CC1
    -1	20	-0.4%	1%	10%	4.2	9%
CCc1nnc(NC(=O)CSc2ccc(-c3nc4ccccc4[nH]3)cn2)s1
    -1	6	?	11%	1%	-1.9	9%
C[C@@H]1CCC2[C@](C)(CO)[C@@H](O)CC[C@]2(C)[C@@]12C[C@](CO)(CC(=O)O)CO2 (stereo partly drawn)
    -7	-1	1.3%	-10%	5%	0.8	6%
CN1CCN(C2=C(Cl)C(=O)C(c3cnc(N4CCCCC4)s3)=C(Cl)C2=O)CC1
    -16	0	-1.1%	?	10%	2.3	-10%
Cc1c2cnn(CC(=O)N3CCN(c4ncccn4)CC3)c(=O)c2c(C)n1Cc1ccc(F)cc1
    -8	·	·	·	·	3.4	4%
Cc1ccc(C(=O)Nn2cnnc2)cc1Cl
    1	·	2.6%	23%	6%	1.7	18%
COC(=O)c1ccn(C(=O)c2ccc(Cl)cc2)n1
    -27	8	28µM*	8%	-10%	-3.4	-2%
CCc1cc(=O)oc2cc(C)cc(OC(C)C(=O)NCCCN3CCOCC3)c12 (stereo not drawn)
    -5	-4	3.7%	6%	7%	·	8%
O=C(CC(=O)c1ccccn1)c1ccccc1
    ·	3	-2.7%	-4%	-4%	·	·
COc1cc(NC(=O)C(C)Oc2ccccc2)cc(OC)c1 (stereo not drawn)
    8	-18	4.5%	1%	11%	0.7	19%
O=C(O)c1ccccc1-c1ccc([N+](=O)[O-])cc1Cl
    ·	0	-11%	-27%	·	·	·
O=C(NC1CCCC1)c1cc(S(=O)(=O)N2CCCC2)ccc1Cl
    5	18	0.9%	21%[15.4 µM]	6%	·	20%
COc1ccc(NC(=O)c2ccco2)cc1NC(=O)c1ccco1
    -4	5	0.7%	0%	15%	5.1	5%
O=C1/C(=C/c2ccco2)Cc2ccccc21
    -26	21	-0.4%	9%[15.4 µM]	3%	7.0	-10%
CC(C)C(OC(=O)c1ccco1)C(=O)NC1CCCC1 (stereo not drawn)
    0	-5	·	1%	6%	5.5	8%
CC(C)=CCC/C(C)=C/COc1ccc2ccc(=O)oc2c1
    16	·	4.7%	·	-16%	-3.5&1.5&3.8&-8.3	-2%&-12%&-9%&-4%
CC(C(=O)NC1CCCCCC1)N(c1ccccc1)S(C)(=O)=O (stereo not drawn)
    -4	1	-0.3%	-28%	-9%	-2.0	0%
CCOC(=O)c1ccc(S(=O)(=O)Nc2cc(S(=O)(=O)Nc3ccc(OC)cc3)ccc2O)cc1
    ·	5	2.1%	-3%	-16%	·	·
O=C(NCc1cn2ccccc2n1)C1CCC(=O)N(Cc2ccccc2F)C1 (stereo not drawn)
    ?	-4	4.1%	-1%	9%	·	11%
COc1ccc(C(=O)NNC(=O)CSc2nnc(C3CC3)n2C)cc1
    2	-17	-0.1%	-2%[15.4 µM]	20%	3.5	0%
NS(=O)(=O)c1ccc(CCNC(=O)c2ccc(S(=O)(=O)N3CCCCC3)cc2)cc1
    -2	-2	-10%	4%	16%	?	16%
CC1(C)CC2(CC(c3ccccc3)Oc3cc(O)ccc32)NC(=S)N1 (stereo not drawn)
    7	0	0.7%	?	-13%	1.2	3%
CCOC(=O)C(=CNc1ccc(OC)cc1[N+](=O)[O-])C(=O)OCC
    -16	53	-0.7%	-7%	?	3.9	5%
Cc1ccc2nc(SCC(=O)N(C)C3CCS(=O)(=O)C3)[nH]c2c1 (stereo not drawn)
    -4	5	0.8%	8%	12%	·	·
COc1ccc(CCNCc2c(OC)ccc3ccccc23)cc1OC
    -11	-9	-0.3%	?	10%	-14	-12%
O=C(CCCOc1ccccc1)NC(=S)Nc1ccccc1
    5	-12	0.7%	-2%[15.4 µM]	-15%	-0.2	8%
Fc1ccccc1N1CCN(CCCc2ccccc2)CC1
    -6	-11	·	-35%[inhibitor]	10%	-6.7	-16%
COc1ccc(CNC(=S)N/N=C/c2ccncc2)cc1
    -1	0	-0.4%	-65%[inhibitor]	8%	·	10%
COc1ccc(-c2[nH]ncc2/C=N\NS(=O)(=O)c2ccccc2)cc1OC
    -5	-21	-1.8%	-25%	10%[15.4 µM]	10	-4%
COc1ccc([C@H]2C[C@H](n3cc(-c4ccc(F)cc4)nn3)[C@@H](O)CN2C(=O)C2CCCCC2)cc1
    ·	-1	-2.3%	0%	·	·	·
CC/C(=N/Nc1ccc(Cl)cc1)c1cnnc(SC)n1
    5	19	-3.0%	-15%[15.4 µM]	-5%	-22	10%
N#Cc1c(/N=C/c2cccnc2)sc2c1CCCC2
    30	-6	·	19%[15.4 µM]	5%	0.5	-5%
CC(C)/C=C1\CC/C(=C\c2cccnc2)C1=O
    -16	-2	-0.5%	-17%	0%	1.1	11%
CC1(C)Cc2c(c(-c3ccccc3)nc(N3CCOCC3)c2C(N)=O)CO1
    -2	18	-2.7%	-2%	8%	5.6	4%
CC(C)N(Cc1ccccc1)C(=O)COC(=O)c1cc(S(=O)(=O)N(C)C)ccc1N1CCCC1
    ·	8	·	6%	-15%	·	·
Cc1ccc(C)c(S(=O)(=O)Nc2ccc3cn[nH]c3c2)c1
    -15	-13	-1.4%	-4%	3%	·	·
O=C(NCCCn1ccnc1)c1ccc(N2CCCCCC2)c([N+](=O)[O-])c1
    -4	16	·	16%[15.4 µM]	-3%	-0.4	3%
COc1ccc(C(c2c(NC(=O)c3ccco3)sc(C)c2C)N2CCOCC2)cc1OC (stereo not drawn)
    -13	4	-3.3%	16%	-14%	·	·
CC(CCC(=O)NN)C1CCC2C3CCC4CC(O)CCC4(C)C3CCC12C (stereo not drawn)
    ·	32	-7.8%	-8%	7%	·	·
COc1ccc(CC(=O)OCC(=O)NC(=O)NC2CCCCC2)cc1
    -6	-5	1.4%	-11%	3%	0.7	6%
COc1ccc(-n2c3c(cc(C(=O)N4CCN(CCO)CC4)c2=O)C(=O)CC(C)(C)C3)cc1
    -7	1	-9.3%	-40%[inhibitor]	1%	3.3	11%
OC(Cn1cnnc1)c1ccccc1 (stereo not drawn)
    ?	6	·	?	10%	-1.3	?
CC(C)(C)S(=O)(=O)c1cnc2c(-c3ccc(F)cc3)cnn2c1N
    2	-6	-0.7%	23%	1%	-2.8	21%
COc1ccc(OC)c(C(=O)COC(=O)CNC(=O)C2CCCCC2)c1
    5	16	-8.5%	18%	18%	6.2	6%
O=C(NCc1c(O)ccc2ccccc12)c1ccccc1
    -7	-8	-0.8%	-10%	-7%	4.0	4%
Cc1ccc(OCC(=O)Nn2cnnc2)c(Br)c1
    -17	9	1.6%	-55%[inhibitor]	-12%	-6.6	-10%
O=[N+]([O-])/C(C(Cl)=C(Cl)Cl)=C1\Nc2ccccc2O1
    10	23	-0.5%	3%[15.4 µM]	0%	-2.7	-16%
Cc1cccc(NN=C2c3ccccc3-c3ccccc32)c1
    -6	30	?	-9%[15.4 µM]	11%	0.0	1%
CC(=O)c1c(C)oc2ccc(NS(=O)(=O)c3cccs3)cc12
    1	50	·	6%[15.4 µM]	-4%	2.5	17%
Cc1c(NC(=O)Nc2ccc(F)cc2)c(=O)n(-c2ccccc2)n1C
    -1	-5	·	-26%[15.4 µM]	6%	2.8	13%
Cc1c(NC(=O)c2ccccc2NC(=O)COc2ccccc2)cccc1C(=O)O
    16	6	-0.4%	-4%	1%	·	-5%
CCOC(=O)C1CCCN(C(=O)c2sc3nc(C)nc(N4CCOCC4)c3c2C)C1 (stereo not drawn)
    7	-21	-2.9%	?	1%	3.4	-1%
CS(=O)(=O)Nc1ccc2c(c1)[C@@H]1C[C@@H](CC(=O)NCc3cccnc3)O[C@H](CO)[C@@H]1O2
    ·	20	1.1%	-28%	·	·	·
COc1ccccc1N1CC(C(=O)OC(C)C(=O)N2CCCc3ccccc32)CC1=O (stereo not drawn)
    2	0	-0.2%	5%	-19%	-2.4	5%
CCS(=O)(=O)NCCc1ccc(OC)c(OC)c1
    16	20	-0.3%	36%	-2%	-1.2	11%
O=C(NCc1ccc2c(c1)OCO2)c1ccc(S(=O)(=O)NCC2CCCO2)cc1 (stereo not drawn)
    12	-1	-13%	13%	0%	1.2	-11%
COc1ccccc1-c1nnc(NC(=O)CSc2nncn2C)s1
    -3	20	·	11%[15.4 µM]	2%	-4.6	13%
CCOC(=O)c1c(NC(=O)COC(=O)CCOc2ccc(OCC)cc2)sc(C(=O)N(C)C)c1C
    -10	-2	·	-26%[15.4 µM]	-9%	·	·
CC1CCN(Cc2c(C(=O)N/N=C/c3ccccc3O)nnn2-c2nonc2N)CC1
    1	13	·	11%[15.4 µM]	-2%	1.5	3%

(list continues)
Values run as follows: TRPV1 potentiator	TRPML1 blocker	ClpP mod	gsp agonist	gsp antag	Menin-MLL FL inh	Sfp inh
CC1Cc2ccccc2N1S(=O)(=O)c1cnc(Cl)c(Br)c1 (stereo not drawn)
    -39	3	-1.3%	-13%	-7%	-0.1	-10%
Cn1cc(C(=O)NC2CCCCCC2)c(=O)c2cc(S(=O)(=O)N3CCCC3)ccc21
    -6	-6	-0.4%	-65%	-1%	2.4	5%
O=C(COn1nnc2ccc(C(F)(F)F)cc21)Nc1c(Cl)cccc1Cl
    -1	23	·	1%[15.4 µM]	-4%	4.8	-8%
Clc1ccc(C[n+]2cc(-c3ccccc3)n3c2CCCCC3)c(Cl)c1
    0	7	1.1%	-7%	17%	-3.5&0.0	-6%&12%
COc1ccc(Nc2nc(-c3ccccc3)nc3ccccc23)c(OC)c1
    9	30	·	-26%	-24%	-1.2	5%

Rows are unselected, and some 4.9% of all compounds hit somewhere here.
